Bioassay records deposited in PubChem BioAssay by National Center for Advancing Translational Sciences (NCATS).
TRPV1 potentiator = human TRPV1 potentiation | Q8NER1 | TRPV1-expressing cells, Fluo-8 calcium influx, capsaicin EC20 potentiation; host cell line not named in the record; control for the full effect not named in the record | potentiation, % at 8.33 µM | hit rate 0.02% among 320,000; active means potentiation above 80%; inconclusive means 30% to 80%; inactive means below 30%; further: 0% is about no effect
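Cells expressing TRPV1 were dye-loaded with Fluo-8 and read kinetically: 10 s baseline, 3 min after compound (agonist portion), then 2 min after EC20 capsaicin (allosteric enhancer portion). Calcium-bound dye fluorescence at 480/520 nm.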
D2 ag = agonists of human D2 dopamine receptor (beta-arrestin); P14416; DiscoveRx PathHunter D2 beta-arrestin, luminescence, 90 min; 100% = 57 uM dopamine signal; activation, % (test concentration not listed); hit rate 0.084% among 360,000; AID 624465; in the data active = activation above about 40%; inconclusive = about 15% to 40%; inactive = below about 15%; further: compound concentration not given in the record; the text of the record calls up to 30% inactive
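DiscoveRx PathHunter D2 beta-arrestin cells (2,100/well) attached overnight, then compound-stimulated 90 min at 37 C in HBSS/10 mM HEPES/0.1% Tween-20 buffer; beta-galactosidase complementation read by luminescence after 1 h at ambient temperature. Dopamine 57 uM final (EC100) as control.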
Sfp inh = inhibitors of Bacillus subtilis Sfp phosphopantetheinyl transferase; hit rate 3.5% among 310,000; Biochemical Sfp PPTase activity, qHTS; Q9F4F7; Potency, µM, for the others: max response, negative = inhibition, usual class: inhibitors; active means well fitted inhibition curve with a large enough effect; inconclusive means small, poorly fitted or top-dose-only effect, or another doubt; inactive means no such curve, though single readings can be large or run the other way;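 further: the enzyme is Sfp with the accession as filed and its product quenches rhodamine fluorescence; potency means the concentration at half of the fitted maximal effect; 0% = enzyme reaction without inhibitor and -100% = no enzyme wells; top concentration of the series not given in the record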
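After 15 min at room temperature with compound, 15 nM Sfp received 5 uM rhodamine-CoA plus 12.5 uM BHQ-2-ybbR (50 mM Hepes pH 7.6, 10 mM MgCl2). Rate came from the fluorescence difference over 30 min, ex 525/em 598 nm.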
CtBP-E1A blk = inhibitors of CtBP/E1A interaction. AlphaScreen GST-E1A/His-CtBP binding, 1536-well; hits give low values; control for the full effect not named in the record. activity change, % (concentration not given with the values). hit rate 0.49% among 340,000; in the data active means activity change below about -65%; inconclusive means about -30% to -65%; inactive means above about -30%; further: on the % scale 0 is the no-effect control and ±100 the full control effect
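Homogeneous bead-based format: GST-tagged E1A captured on glutathione donor beads, His-tagged CtBP on nickel acceptor beads; compounds precede bead addition by 2 h at 37 °C.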
Six1-Eya2 blk = inhibitors of human Six1/Eya2 interaction | Q15475+O00167 | AlphaScreen GST-Six1/His-Eya2 binding, biochemical; hits give low values; control for the full effect not named in the record | activity change, % (concentration not given with the values) | hit rate 0.56% among 360,000; in the data active = activity change below about -65%; inconclusive = about -30% to -65%; inactive = above about -30%; further: on the % scale 0 is the no-effect control and ±100 the full control effect
Target sequence (O00167 whole entry, looked up): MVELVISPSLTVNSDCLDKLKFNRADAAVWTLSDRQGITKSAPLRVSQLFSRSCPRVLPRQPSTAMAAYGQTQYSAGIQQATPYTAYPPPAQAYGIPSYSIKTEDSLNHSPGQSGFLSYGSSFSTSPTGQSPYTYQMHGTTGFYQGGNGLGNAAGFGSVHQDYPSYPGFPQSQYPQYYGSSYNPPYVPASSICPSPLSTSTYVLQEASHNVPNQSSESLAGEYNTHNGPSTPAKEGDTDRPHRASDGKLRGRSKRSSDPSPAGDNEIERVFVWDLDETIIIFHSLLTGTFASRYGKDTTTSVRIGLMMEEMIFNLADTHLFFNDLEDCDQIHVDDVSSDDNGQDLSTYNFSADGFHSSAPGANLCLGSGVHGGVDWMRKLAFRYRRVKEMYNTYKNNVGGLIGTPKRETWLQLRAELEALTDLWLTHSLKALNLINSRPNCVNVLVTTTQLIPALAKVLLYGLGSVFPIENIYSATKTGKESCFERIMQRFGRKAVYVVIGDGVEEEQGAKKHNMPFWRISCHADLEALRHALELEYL
Target sequence (Q15475 whole entry, looked up): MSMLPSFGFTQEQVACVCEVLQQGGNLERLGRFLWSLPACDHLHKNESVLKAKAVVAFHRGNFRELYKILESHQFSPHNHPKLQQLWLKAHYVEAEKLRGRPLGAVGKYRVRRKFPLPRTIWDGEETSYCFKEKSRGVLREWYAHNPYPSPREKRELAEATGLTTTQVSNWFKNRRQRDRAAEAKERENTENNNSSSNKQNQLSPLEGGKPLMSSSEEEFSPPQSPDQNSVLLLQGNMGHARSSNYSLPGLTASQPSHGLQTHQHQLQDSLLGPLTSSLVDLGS
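GST-Six1 + His-Eya2 (5X stock: 250/500 nM); Tris pH 8.0, 300 mM NaCl, 0.05% BSA, 0.02% Tween 20; GSH donor/Ni acceptor beads; 1 h 37 °C dark; AlphaScreen readout.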
PINK1 modulator = changes PINK1 expression | AID 624263 | PINK1 immunofluorescence, high-content cytometry, 24 h | hit rate 0.2% among 410,000 | Potency, µM (highest dose often 76.6 µM), without a hit: at the highest dose activation (PINK1 increase), most hits filed as activators; active = well fitted activation curve with a large enough effect; inconclusive = small, poorly fitted or top-dose-only effect; inactive = flat fitted curve, though single readings scatter; cell line not stated here;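 further: potency means the concentration at half of the fitted maximal effect; % of control where 0% means no effect; nearly all actives have a fitted effect of over 65% in size; a mitochondrial uncoupler was the plate control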
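PINK1 protein, normally rapidly degraded, was detected by immunofluorescence after 24 hour compound treatment of a stable cell line. Titration data (5 concentrations) came from laser-scanning cytometry, with CCCP-treated wells as controls.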
D2 PAM = positive allosteric modulators of human D2 dopamine receptor. potentiation, % (concentration not given with the values). hit rate 0.23% among 360,000. P14416. DiscoveRx D2 beta-arrestin cells, luminescence, 90 min; 100% = 57 uM dopamine signal. AID 624464; active = potentiation of 50% or more; inconclusive = 30% to 50%; inactive = 30% or less;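 further: compound concentration not given in the record; tested on top of an EC20 dose of dopamine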
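PathHunter D2 cells, attached overnight at 37 deg C, received compound in DMSO plus dopamine at EC20 (50 nM final) for 90 min at 37 deg C. Beta-arrestin recruitment was read as luminescence after 1 h with detection reagent at ambient temperature.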
* hit, by the source's call; ? = inconclusive; · = no result given; & = joins results of further samples.

Fields – TRPV1 potentiator, D2 ag, Sfp inh, CtBP-E1A blk, Six1-Eya2 blk, PINK1 modulator, D2 PAM
CCN1CCN(C(=O)c2ccc3c(=O)n(C4CCCC4)c(=S)[nH]c3c2)CC1
  2, 2.1, -16%, 1, 1, 5.9%, -1
Cc1ccccc1NC(=O)CSc1nc2ccccc2c(=O)n1CC1CCCO1 (stereo not drawn)
  -25, -1.6, 10%, -2, 27, -1.5%, -1
CCCCc1c(-c2ccccc2OC)ncn1C1CCCC1
  ·, ·, ·, -19, -22, ?, ·
Cc1ccc(S(=O)(=O)N2CCOCC2)cc1NC(=O)COC(=O)CCC(=O)c1ccc(F)cc1
  23, 0.9, ·, 6, 1, 2.0%, -3
CC(C)(CNC(=O)C1CCN(S(=O)(=O)c2cc([N+](=O)[O-])ccc2Cl)CC1)N1CCOCC1
  -4, 4.9, ·, 2, 0, -1.7%, 2
COc1ccc(N(CC(=O)N2CCCC2)S(=O)(=O)c2ccc(NC(C)=O)cc2)cc1
  24, -2.4, -19%, 5, 2, 2.7%, -7
O=C(NC1(C(F)(F)F)NC(=O)N(Cc2cccnc2)C1=O)c1ccccc1Cl (stereo not drawn)
  23, -3.7, 23%, 0, -2, -2.1%, -9
Cc1ccc(C)c(N(C(=O)c2ccco2)C(C(=O)NC2CCCC2)c2ccco2)c1 (stereo not drawn)
  6, -4.1, 7%, -3, -2, 0.1%, -3
COc1ccc(/C=N/NC2=NS(=O)(=O)c3ccccc32)cc1OC(C)=O
  8, -1.9, 2%, 6, -6, 6.0%, -4
CCN(CC)C(=O)c1csc([C@@H]2O[C@H](CO)[C@H](O)[C@H](O)[C@H]2O)n1
  ·, -2.8, ·, 6, 4, 2.0%, 0
CCOc1ccccc1N1CCN(C(=O)[C@@H]2CCCN2C2=NS(=O)(=O)c3ccccc32)CC1
  -10, 6.8, ·, 4, 5, 3.9%, -3
C(#Cc1c(-c2ccsc2)sc2ccccc12)c1ccsc1
  ·, -7.7, ·, 41, 62, 11%, -8
Cc1ccc(S(=O)(=O)N2CCOCC2)cc1C(=O)N1CCC(Cc2ccccc2)CC1
  -8, -2.6, 7%, 0, -11, 0.5%, -1
COCc1c(C(=O)N/N=C/c2c[nH]c3ccccc23)nnn1-c1nonc1N
  4, 2.7, 20%, 19, 0, ?, 7
Cc1ccc(C)c(S(=O)(=O)N/N=C/c2ccc(F)cc2)c1
  7, 1.1, -29%, ·, 4, -1.8%, 9
CCc1cccc(CC)c1-n1c(SCn2nnc3ccccc3c2=O)nnc1-c1cccnc1
  2, -0.4, -11%, -16, -5, -0.3%, 2
O=C1/C(=C\c2ccccc2)CN(C(=O)CCN2CCCCC2)C/C1=C/c1ccccc1
  ·, -4.5, ·, 6, -4, -0.3%, -24
O=C(CSc1nccn1-c1cccc(Cl)c1)NC1CCCC1
  2, -3.6, 1%, -1, -4, -0.6%, -10
COc1ccccc1CN1CCNC(=O)C1CC(=O)N(C)Cc1ccon1 (stereo not drawn)
  1, -1.8, 3%, ·, 2, 1.5%, -8
COc1ccc(OCC(=O)N/N=C2\CCCCc3ccccc32)cc1
  -4, -0.7, 4%, -1, 4, -1.4%, -3

5 compounds out of the list above, ordered by the value under Sfp inh, high to low:
Molecule	Sfp inh
COCc1c(C(=O)N/N=C/c2c[nH]c3ccccc23)nnn1-c1nonc1N	20%
Cc1ccc(S(=O)(=O)N2CCOCC2)cc1C(=O)N1CCC(Cc2ccccc2)CC1	7%
COc1ccc(OCC(=O)N/N=C2\CCCCc3ccccc32)cc1	4%
CCc1cccc(CC)c1-n1c(SCn2nnc3ccccc3c2=O)nnc1-c1cccnc1	-11%
Cc1ccc(C)c(S(=O)(=O)N/N=C/c2ccc(F)cc2)c1	-29%

An excerpt from above in order of count of non-hydrogen atoms, largest number first:
Fields – TRPV1 potentiator, D2 ag, Sfp inh, CtBP-E1A blk, Six1-Eya2 blk, PINK1 modulator, D2 PAM
CCc1cccc(CC)c1-n1c(SCn2nnc3ccccc3c2=O)nnc1-c1cccnc1
  2, -0.4, -11%, -16, -5, -0.3%, 2
O=C(CSc1nccn1-c1cccc(Cl)c1)NC1CCCC1
  2, -3.6, 1%, -1, -4, -0.6%, -10
Cc1ccc(C)c(S(=O)(=O)N/N=C/c2ccc(F)cc2)c1
  7, 1.1, -29%, ·, 4, -1.8%, 9

Further results follow.
Fields – TRPV1 potentiator, D2 ag, Sfp inh, CtBP-E1A blk, Six1-Eya2 blk, PINK1 modulator, D2 PAM
Cc1[nH]nc(N=CC2=C(O)CC(c3ccco3)CC2=O)c1-c1ccccc1 (stereo not drawn)
  -10, -1.6&-2.4, -20%, 6&-2, 3&1, 4.1%, -4&-11
Cc1cc(Sc2nnc(/N=C/N(C)C)s2)c2ccccc2n1
  ·, -2.0, 15%, ·, 5, -1.7%, -26
O=C(c1ccccc1Cl)N(Cc1ccc(Br)cc1)N1C(=O)CCC1=O
  -9, -3.2, 15%, 5, 1, 1.1%, -10
Cc1cc2occ(CC(=O)Nc3nccs3)c2cc1C(C)C
  -3, 0.5, 21%, 4, 0, ?, -8
COC(=O)c1ccc(C23CC4(C2)[C@H](CN(C)[C@@H]4c2ccccc2)C3c2ccccc2)cc1 (stereo partly drawn)
  ?, -2.2, -3%&-9%, -14, -20, 2.8%, -8
COc1ccc(-c2noc(CNS(=O)(=O)c3ccccc3)n2)cc1
  8, 1.3, 8%, 2, 5, 0.2%, -8
Cc1ccc2ccc(S(=O)(=O)NCc3ccco3)cc2c1
  -3, -5.0, -16%, -17, -8, 7.0%, -8
CN(C)S(=O)(=O)c1ccc(N2CCCC2)c(C(=O)NNC(=O)COc2ccccc2Cl)c1
  7, -2.0, ·, -3, -3, -0.3%, -16
COc1cccc(CN2CC(C(=O)NCCCn3ccnc3C)CCC2=O)c1 (stereo not drawn)
  -2, -2.9, 15%, -12, -17, 2.5%, -8
CCN(CC)C(=O)C1=C(C)N(CCCOC)C(=O)C(CC(=O)NC2CC2)C1 (stereo not drawn)
  ·, -6.5, ·, -9, -4, 2.1%, -2
COc1ccc(Cl)cc1C(=O)Nc1ccc(NC(=O)c2ccco2)cc1
  ?, 3.0, 6%, -3, -5, 6.3%, -6
CCc1ccc(NC(=O)Cn2nnc(C(=O)NCc3ccc4c(c3)OCO4)c2N)cc1
  -4, -3.0, 0%, -5, 5, 10%, -9
Fc1ccc(-c2nnc3ccc(N4CCCC4)nn23)cc1
  -13, -0.2, 3%, 1, -2, 5.8%, 0
CCN(CC)CCN1C(=O)C(=O)/C(=C(/O)c2c(C)[nH]c(C(=O)OC)c2C)C1c1cccnc1 (stereo not drawn)
  6, -3.1, -15%, -1, 6, -0.4%, 4
O=C(NCc1ccccn1)c1ccc(=O)oc1
  6, 0.0, 89µM*, -79*, -87*, -0.4%, 0
FC(F)(F)c1cccc(NC(=S)Nc2ccc(Cl)c(Cl)c2)c1
  0, -3.4, -19%, 3, -9, ?, -8
COc1cccc(NC(=O)c2ncc(Cl)c(Cl)c2Cl)c1
  -25, -4.8, 18%, -1, -11, 2.3%, -34
CN(C)CCCN(C(=O)c1ccc(S(=O)(=O)N2CCCCC2)cc1)c1nc2cc3c(cc2s1)OCO3
  -8, 1.0, -14%, -6, -23, 3.8%, -29
COc1ccc(-c2ccc(C(C)=O)cc2)cc1[C@H]1[C@H]2C=CC[C@@H](C)[C@@H]2C(=O)N1Cc1ccccc1
  5, -1.4, -21%, ·, 12, 3.5%, 1
COc1[nH]c2ccc(F)cc2c1C(=O)OCC1CCN(CCNS(C)(=O)=O)CC1
  ·, -5.1, 20%, 1, 2, 0.6%, -30

The list goes on.
mol	TRPV1 potentiator	D2 ag	Sfp inh	CtBP-E1A blk	Six1-Eya2 blk	PINK1 modulator	D2 PAM
O=C(NCC1CCCO1)c1nn2c(C(F)(F)F)cc(-c3ccco3)nc2c1Cl (stereo not drawn)	·	2.8	·	1	-4	20%	10
Cc1cc2ncc(Cl)nc2cc1C	3	-1.9	7%	17	-2	?	-3
O=C(CSc1nnc(CNC(=O)c2cccs2)o1)Nc1ccccc1F	-13	-2.1	14%	-2	0	0.7%	-3
N/C(=N\OC(=O)c1ccc(Cl)cc1)c1[nH]ncc1Br	-16	7.1	-7%	·	0	6.2%	-1
CC(Sc1n[nH]c(N)n1)C(=O)NC1CCCCC1C (stereo not drawn)	5	-5.3	14%	3	10	-1.6%	-22
O=C(NCCN1C(=O)S/C(=C\c2ccccc2F)C1=O)C1CCCN1C(=O)c1cccs1 (stereo not drawn)	1	1.6	-15%	-23	-14	-0.7%	-8
CCOC(=O)/C(C#N)=C/C=C1/C=CC=CN1C	13	-0.9	3%	-1	-2	2.3%	-5
COc1ccccc1NC(=O)/C(C#N)=C/c1ccc(OCCN2CCOCC2)c(OC)c1	9	0.5	6%	4	8	1.5%	-2
COc1ccc(Cn2c(C(C)C)nc3sc4ccccc4c(=O)c3c2=O)cc1	10	1.9	13%	8	4	1.8%	-8
CCOC(=O)C1C(=O)CC(=O)CC1CC(C)SCC (stereo not drawn)	?	-1.3	-10%	7	5	1.6%	-8
CC1(C)CC2CC(C)(CN2S(=O)(=O)c2ccc(C(=O)Nc3ccc(S(=O)(=O)N4CCOCC4)cc3)cc2)C1 (stereo not drawn)	16	-3.1	15%	2	-2	0.6%	-5
CN1OC[C@@H]2CN(S(=O)(=O)c3cccc(C(F)(F)F)c3)[C@H](c3ccc(-c4cccnc4)cc3)C[C@@H]21	·	-2.2	·	-24	11	-0.6%	-9
CC1(C)N=C(N)N=C(N)N1c1ccc(OCCCOc2ccccc2)c(Cl)c1	10	4.7	-14%	·	5	-0.3%	-30
Cn1c(SCC(=O)NC(=O)Cc2ccccc2)nnc1-c1ccc(F)cc1	·	-1.3	·	0	2	-1.6%	-3
COC(=O)C1CCN(C2CN(Cc3ccc(F)cc3)S(=O)(=O)C2)CC1 (stereo not drawn)	·	2.6	·	3	0	-0.1%	-4
CCCCCNC(=O)c1ccc2c(=O)n(CCCN3CCCC3=O)c(=S)[nH]c2c1	2	-1.7	-14%	-9	-16	2.3%	-2
COc1ccc(/C=C(\C#N)C(=O)Nc2cc(C)c(Cl)cc2OC)cc1O	5	-5.2	-5%	·	0	10%	-7
CCOC(=O)CSCc1cn2cc(Cl)ccc2n1	-5	0.5	22%	-16	1	0.6%	14

Outcome played no part in choosing rows; 3.7% or so of the library scored in one or more.
